Compound activity from PubChem.
CHT block = inhibits the human high affinity choline transporter; CHT-expressing cells, membrane potential dye, choline response; hits give low values; B-score at 10 µM; 310,000 tested, 0.86% active;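 active = B-score over 3 SD under the library average, and starting fluorescence ratio not unusually high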;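 note: choline stimulus applied at its EC90 after an EC20 pre-addition; B-score computed on integrated fluorescence ratio after choline addition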
Target sequence (Q9GZV3 whole entry, looked up): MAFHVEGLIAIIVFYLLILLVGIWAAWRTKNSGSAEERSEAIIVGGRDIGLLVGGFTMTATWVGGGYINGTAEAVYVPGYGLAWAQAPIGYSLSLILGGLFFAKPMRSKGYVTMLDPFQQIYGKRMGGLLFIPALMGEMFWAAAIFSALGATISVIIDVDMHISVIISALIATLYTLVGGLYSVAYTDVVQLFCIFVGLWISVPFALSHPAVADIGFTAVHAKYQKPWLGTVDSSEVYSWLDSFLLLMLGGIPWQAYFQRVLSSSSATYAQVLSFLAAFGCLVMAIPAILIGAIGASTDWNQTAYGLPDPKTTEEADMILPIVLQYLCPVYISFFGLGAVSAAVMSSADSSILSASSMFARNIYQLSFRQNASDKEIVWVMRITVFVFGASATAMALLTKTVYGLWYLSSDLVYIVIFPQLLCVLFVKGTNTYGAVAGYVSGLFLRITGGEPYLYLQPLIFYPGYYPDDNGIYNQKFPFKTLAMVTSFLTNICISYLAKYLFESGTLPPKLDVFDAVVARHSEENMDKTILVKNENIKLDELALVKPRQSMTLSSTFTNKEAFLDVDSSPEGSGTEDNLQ
CHT allo act = allosteric activators of human choline transporter CHT; B-score at 10 µM; AID 488977; CHT-expressing cells, membrane potential dye, choline EC20; hits give high values; LV-AA mutant CHT in HEK293 cells; 310,000 tested, 0.49% active; Q9GZV3;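 active = initial fluorescence not abnormally high and integrated response B-score, plate-corrected, over 3 SD above library mean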
Calls only; i = inactive. The list is partial; most or all hits stand in other tables.

Below each compound: CHT block, CHT allo act
- COc1cc(/C=N/NC(=O)CNC(=O)/C=C/c2ccco2)cc(OC)c1OC
  i, i
- Cc1ccc(S(=O)(=O)N2CCN(C3CC(=O)N(Cc4ccccc4)C3=O)CC2)cc1C (stereo not given)
  i, i
- CC(=O)c1cccc(NC(=O)NCc2cccnc2)c1
  i, i
- Cc1nc2c(-c3ccccc3)c(C)nn2c(C)c1CCC(=O)NCc1ccco1
  i, i
- COc1ccc(N2C(=O)CN=C2Nc2nc(C)cc(C)n2)cc1OC
  i, i
- Cc1cc(S(=O)(=O)NC2CCN(Cc3ccccc3)CC2)c(C)cc1Cl
  i, i
- COc1ccc(CN(CCCN2CCOCC2)S(=O)(=O)N(C)C)cc1OC
  i, i
- C=C1CCN([C@@H](CC(C)C)C(=O)NCc2cc(OC)c(OC)c(OC)c2)S(=O)(=O)c2ccccc21
  i, i
- COc1ccccc1C(=O)Nc1ccc2c(c1)OCCO2
  i, i
- Cc1coc2c1c(C)cc1oc(=O)c(CC(=O)N[C@H](C(=O)O)C(C)C)c(C)c12
  i, i
- Cc1ccc(S(=O)(=O)NCc2ccccc2)s1
  i, i
- N#CCN1CCC/C1=C\[N+](=O)[O-]
  i, i
- Cc1ccc(NC(=O)c2cc(S(=O)(=O)N3CCc4ccccc43)cn2C)cc1
  i, i
- CN(Cc1cnn(C)c1)C(=O)C1CCC(=O)N(Cc2cccc(F)c2)C1 (stereo not given)
  i, i
- O=C(COc1ccc(S(=O)(=O)N2CCCC2)cc1)N1CCCC1
  i, i
- CCCc1nnc(NC(=O)Cn2c(=O)oc3cc(Br)ccc32)s1
  i, i
- Cc1oc(-c2ccc(Cl)cc2)nc1CS(=O)CC(=O)NCCCN1CC(C)CC(C)C1 (stereo not given)
  i, i
- CC(OC(=O)c1ccco1)C(=O)NC1CCCCC1 (stereo not given)
  i, i
- Cc1ccccc1NC(=O)C(=O)NCc1ccccn1
  i, i
- CCOC(=O)c1[nH]c(C)c(C(=O)N2CCN(C(=O)OCC)CC2)c1CC
  i, i

Continued, overlapping the part above by two compounds.
Below each compound: CHT block, CHT allo act
- Cc1ccccc1NC(=O)C(=O)NCc1ccccn1
  i, i
- CCOC(=O)c1[nH]c(C)c(C(=O)N2CCN(C(=O)OCC)CC2)c1CC
  i, i
- CCNC(=O)COC(=O)c1sccc1C
  i, i
- CCN1CCN(C(=O)C2CCC(CNS(=O)(=O)c3ccccc3)CC2)CC1 (stereo not given)
  i, i
- O=C(Nc1ccncc1)c1cc(S(=O)(=O)N2CCCCC2)ccc1Cl
  i, i
- O=C(NCCCN1CCCC1=O)c1ccc(OCc2ccccc2)cc1
  i, i
- O=C(CSc1nc2ccccc2n1S(=O)(=O)c1cccc([N+](=O)[O-])c1)NCc1cccs1
  i, i
- O=C(N/N=C/c1cccc(OC(=O)c2ccc3c(c2)OCO3)c1)c1cncc(Br)c1
  i, i
- CC(C)C[C@H](NC(=O)N1CC(=O)Nc2ccccc21)C(=O)N[C@@H](Cc1c[nH]c2ccccc12)C(=O)O
  i, i
- O=C(COc1ccccc1F)Nc1ccc2[nH]c(=O)[nH]c2c1
  i, i
- COc1ccc(C2=NOC(C(=O)Nc3cccnc3)C2)cc1OC (stereo not given)
  i, i
- Cc1cccc(NC(=O)CSc2ncnc3sc(C)cc23)c1
  i, i
- C/C(=N\NC(=S)Nc1ccc(C)c(C)c1)c1ccc(N2CCOCC2)cc1
  i, i
- O=C(NCc1ccccc1)NC(=O)c1ccccc1F
  i, i
- CCOCCCNC(=O)C(c1ccc(C)cc1)N1CCOCC1 (stereo not given)
  i, i
- Cc1cc(C)c2c(=O)c(/C=C3\NC(=S)NC3=O)coc2c1
  i, i
- CCOC(=O)c1nccnc1C(=O)Nc1ccc(C(F)(F)F)cc1
  i, i
- O=C1c2ccccc2C(=O)C1c1ccc2ccccc2n1
  i, i
- O=C(Nc1ccccc1C(F)(F)F)c1cc(-c2ccco2)on1
  i, i
- CC(C)Cn1c(-c2ccc(F)cc2)n[nH]c1=S
  i, i
- COc1c(Br)cc2c(C)c(C(=O)O)oc2c1Br
  i, i
- Cc1ccc(S(=O)(=O)C2(C(=O)Nc3nccs3)CC2)cc1
  i, i
- COc1cccc(CNS(=O)(=O)c2cc3c(cc2C)NC(=O)CO3)c1
  i, i
- O=C(CC(=O)c1ccccc1)Nc1cccnc1
  i, i
- CC1(C)CC(NC(=O)C23CCC(C)(/C(=N/O)C2)C3(C)C)CC(C)(C)N1 (stereo not given)
  i, i
- COc1ccc(CNC(=O)C2CC(C)=CCC2C(=O)O)cc1 (stereo not given)
  i, i
- O=C(CSc1nnc(SCc2cccc3ccccc23)s1)c1ccc2c(c1)OCO2
  i, i
- O=C(Oc1ccc(-c2nnco2)cc1)c1ccc(Br)o1
  i, i
- Cc1ccsc1C(=O)OCC(=O)c1cc2ccccc2o1
  i, i
- COc1ccc(NC(=O)CN(c2ccc(OC)cc2)S(=O)(=O)c2c(C)nn(C)c2C)cc1
  i, i
- COCCNC(=O)c1cc(C)ccc1C
  i, i
- CCOc1ccc(NC(=O)[C@H](C)NC(=O)C2CC(=O)N(c3ccc(OC)cc3)C2)cc1 (stereo not given in full)
  i, i
- COc1ccc(-n2nc(C(=O)NCC(=O)NCCC3=CCCCC3)c3ccccc3c2=O)cc1OC
  i, i
- Cc1ccc(NC2(C#N)C(=O)Nc3ccccc32)cc1C (stereo not given)
  i, i
- CC(=O)Oc1ccc(C(=O)NC(C)CCc2ccccc2)cc1 (stereo not given)
  i, i
- CCOC(=O)C1CCCN(CCC(=O)Nc2ccc(Br)cc2)C1 (stereo not given)
  i, i
- CC(=O)NC12CC3CC(C1)CC(C(=O)N1CCN(S(=O)(=O)c4ccc(C(C)C)cc4)CC1)(C3)C2
  i, i
- CCOC(CNC(=O)CCc1c(C)nc2ncnn2c1C)OCC
  i, i
- CCCC1NC(=O)NC(C)=C1C(=O)OCC (stereo not given)
  i, i
- COc1ccc(OCC(=O)NCc2n[nH]c(=O)c3ccccc23)cc1
  i, i
- CCOc1ccccc1NC(=O)C(OC(=O)c1ccccc1)c1ccccc1 (stereo not given)
  i, i
- COc1cccc(CN2CC(C(=O)NCCc3ccc(C)s3)CCC2=O)c1 (stereo not given)
  i, i
- CCCCOC(=O)Nc1ccc(S(=O)(=O)Nc2nccs2)cc1
  i, i
- Cc1nn(C(C)C(=O)NCCCN2CCCCCC2)c(=O)c2c1sc1ccccc12 (stereo not given)
  i, i
- COCCNC(=O)c1onc(CSc2ccncc2)c1C(=O)NCCOC
  i, i
- CCCCCC(C)NC(=O)c1ccoc1C (stereo not given)
  i, i
- NC(=O)[C@@H]1CCCNc2c(I)cc([N+](=O)[O-])cc2C(=O)N[C@@H](CO)C(=O)N[C@@H](Cc2ccc(O)cc2)C(=O)N1
  i, i
- Cc1noc(/C=C/c2nn(C)cc2Cl)c1[N+](=O)[O-]
  i, i
- O=C(NCCN1CCOCC1)c1ccc2c(c1)ncn2C1CCCCC1
  i, i
- COc1cccc(CN(Cc2ccccc2F)S(=O)(=O)c2ccc(S(=O)(=O)NCc3ccccc3)cc2)c1
  i, i
- Cc1ccccc1C(=O)N1CCc2ccccc2C1
  i, i
- Cc1ccc(OCCC(=O)OCC(=O)N2c3ccccc3NC(=O)C2(C)C)cc1
  i, i
- COc1ccccc1NS(=O)(=O)c1cccc(C(=O)N/N=C/c2ccc3c(c2)OCCO3)c1
  i, i
- Cc1ccc(-c2cc(-c3ccc(F)cc3)c(C#N)c(N)n2)o1
  i, i
- COc1ccc([N+](=O)[O-])cc1NC(=O)Cc1ccc(Cl)cc1
  i, i
- CC1CCCN(c2ccc(C(=O)OCn3nnc4ccccc4c3=O)cc2[N+](=O)[O-])C1 (stereo not given)
  i, i
- Cc1cccc(NC(=O)CN2CCN(C(=O)C3CCCO3)CC2)c1C (stereo not given)
  i, i
- CNCC(C)COc1ccccc1OCc1ccccc1 (stereo not given)
  i, i
- COc1ccc(C(=O)OC2CCCCC2CN(C)C)cc1 (stereo not given)
  i, i
- COc1cc2[nH]c3c(N4CCN(c5ccc(Cl)cc5)CC4)ncnc3c2cc1OC
  i, i
- O=C(Cn1cc([N+](=O)[O-])cn1)NCc1ccccc1Cl
  i, i
- Cc1cccc(C)c1NC(=O)COC(=O)c1nonc1N
  i, i

An excerpt from above in order of heavy-atom count, lowest first:
Below each compound: CHT block, CHT allo act
- Cc1cccc(C)c1NC(=O)COC(=O)c1nonc1N
  i, i
- COc1ccc([N+](=O)[O-])cc1NC(=O)Cc1ccc(Cl)cc1
  i, i
- CCCCOC(=O)Nc1ccc(S(=O)(=O)Nc2nccs2)cc1
  i, i
- Cc1nn(C(C)C(=O)NCCCN2CCCCCC2)c(=O)c2c1sc1ccccc12 (stereo not given)
  i, i
- COc1ccccc1NS(=O)(=O)c1cccc(C(=O)N/N=C/c2ccc3c(c2)OCCO3)c1
  i, i

Other entries follow:
Below each compound: CHT block, CHT allo act
- CC(=O)NCCOc1ccc2oc3ccccc3c2c1
  i, i
- CCN(CC(=O)Nc1ccccc1OC)C(=O)/C=C/c1cccs1
  i, i
- Cc1nnc(NC(=O)CCS(=O)(=O)c2ccccc2)s1
  i, i
- Fc1ccc(NC(=S)Nc2cccc3ccccc23)cc1F
  i, i
- CSc1nnc(C)c(=O)n1COC(=O)COc1ccccc1
  i, i
- CC(=O)c1cccc(N(C(=O)CNC(=O)c2ccco2)C(C(=O)NCc2ccco2)c2ccccc2)c1 (stereo not given)
  i, i
- CCN(CC)CCOCCOc1ccc(Cl)c2ccccc12
  i, i
- COc1ccc(Nc2nc3c(C)cccn3c(=O)c2C=NCc2ccccc2)cc1
  i, i
- O=C(c1nc2ccccn2c1CNCCCn1cccn1)N1CCCC1
  i, i
- Cc1ccc(S(=O)(=O)c2nc(S(C)(=O)=O)sc2N(C)C)cc1
  i, i
- N#CCCN(C(=O)COC(=O)Cc1ccc(Br)cc1)c1ccccc1
  i, i
- CC(C)NC(=S)n1cc(C(=O)c2cc(Cl)cc(Cl)c2O)cn1
  i, i
- O=c1cnn(-c2ccc(Cl)cc2Cl)c(-c2ccccc2)c1
  i, i
- O=C(NCc1ccccc1)c1ccc(F)c(F)c1
  i, i
- COc1ccc(Nc2nc(N)nc(CSc3nccc(C)n3)n2)cc1
  i, i
- Cc1cc(-c2nn(-c3ccccc3F)cc2CN2CCCC(CO)C2)c(C)s1 (stereo not given)
  i, i
- CCCCOC(=O)c1ccc(NS(=O)(=O)c2cc(-c3nnnn3CC)ccc2OC)cc1
  i, i
- CC(=O)NN1C(=O)c2ccccc2NC1c1ccccc1O (stereo not given)
  i, i
- O=C(Nc1ccc(SC(F)F)cc1)c1ccc2nccnc2c1
  i, i
- CCn1cc(CNC(=O)c2cc([N+](=O)[O-])c(C)c([N+](=O)[O-])c2)cn1
  i, i
- O=C(NCc1ccc2c(c1)OCO2)c1cc2ncc(Br)cn2n1
  i, i
- COc1ccc(C2C3CCCCC3(O)CCN2C(=O)c2cccs2)cc1 (stereo not given)
  i, i
- N#Cc1ccc(C(=O)N2CCN(S(=O)(=O)c3ccc(Br)s3)CC2)cc1
  i, i
- CC(SC1=NCCN1S(=O)(=O)c1ccc(F)cc1)c1ccccc1 (stereo not given)
  i, i
- CCn1cc(C2C(C(=O)Nc3ccc(Br)cn3)=C(C)NC3=C2C(=O)CCC3)c(C)n1 (stereo not given)
  i, i
- Cc1ccc(-c2nc3ccccc3[nH]2)cc1NC(=O)c1ccc2c(c1)OCO2
  i, i
- O=S(=O)(Nc1nc2ccccc2nc1Cl)c1ccc(F)cc1
  i, i
- O=C(CSc1nnc(-c2cccnc2)n1Cc1ccco1)Nc1cccc(O)c1
  i, i
- C=CCN1CCCC1CNC(=O)c1cc2[nH]nnc2cc1OC (stereo not given)
  i, i
- COC(=O)c1sc2ccccc2c1NC(=O)c1ccc(S(=O)(=O)N2CCCCC2)cc1
  i, i
- CCOC(=O)C1CCN(S(=O)(=O)c2cccc(-c3csc(C)n3)c2)CC1
  i, i
- O=C(Nc1nc2ccccc2c(=O)s1)c1ccc(F)cc1Cl
  i, i
- O=C1NCC(CN(c2ccccc2)c2ccccc2)O1 (stereo not given)
  i, i
- C=CCS(=O)(=O)N1CCCC(N(C)CCc2ccc(OC)c(OC)c2)C1 (stereo not given)
  i, i
- CCOc1ccc(C(C)=O)cc1CSc1nnc(-c2ccncc2)n1CCOC
  i, i
- Cc1cc(NC(=O)CCNS(=O)(=O)c2ccc3[nH]c(=O)oc3c2)ccc1Br
  i, i
- CC(=O)Nc1ccc(N(C(=O)c2ccco2)C(C(=O)NC2CCCC2)c2ccc(N(C)C)cc2)cc1 (stereo not given)
  i, i
- O=C(Nc1ccccc1)c1cc2c(=O)c3ccccc3oc2nc1C(F)(F)F
  i, i
- NC(=O)C1(N2CCCCC2)CCN(C(=O)c2ccc(-n3cnnn3)cc2)CC1
  i, i
- COc1ccc(Cc2c[nH]c(=O)[nH]c2=O)cc1
  i, i

Gathered by group: those above with a COOH group
Below each compound: CHT block, CHT allo act
- Cc1coc2c1c(C)cc1oc(=O)c(CC(=O)N[C@H](C(=O)O)C(C)C)c(C)c12
  i, i
- CC(C)C[C@H](NC(=O)N1CC(=O)Nc2ccccc21)C(=O)N[C@@H](Cc1c[nH]c2ccccc12)C(=O)O
  i, i
- COc1c(Br)cc2c(C)c(C(=O)O)oc2c1Br
  i, i
- COc1ccc(CNC(=O)C2CC(C)=CCC2C(=O)O)cc1 (stereo not given)
  i, i

The listing continues:
Below each compound: CHT block, CHT allo act
- Cc1ccc(C(C(=O)NCc2ccccc2)N(C(=O)c2csnn2)c2cccc3ccccc23)o1 (stereo not given)
  i, i
- CCCCC1CCCOC(C(=O)NCCNCCO)(C(F)(F)F)C1 (stereo not given)
  i, i
- CCc1cccc(NC(=O)Cn2cc(C=O)c3ccccc32)c1
  i, i
- O=C(Oc1ccc(N2C(=O)CCC2=O)cc1)c1ccccc1
  i, i
- Cc1ccccc1NC(=O)CC1c2ccccc2CC(C)(C)N1C (stereo not given)
  i, i
